rRNA inh HTS: inhibits bacterial ribosomal RNA function over humanized ribosomes; E. coli WT GFP vs humanized-ribosome RFP mutants, fluorescence, 24 h; stronger effect = lower value; DMSO median 0, no signal -100; GFP signal change (wild-type ribosome), % (no concentration beside the values); 1.6% of 350,000 active; AID 720706;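 active = significant combined selectivity score with lowered wild-type GFP, culture density cut under 30%, mutant RFP and density less affected; inactive = any of these conditions unmet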; also: one replicate is shown; some compounds called inactive have numbers as strong as hits
rRNA inh HTS OD600: second read-out of rRNA inh HTS, no call of its own (marks repeat the call); OD600 change, %; measured here: OD600 growth;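 optical density of the mix in the first replicate; 0 = DMSO median and -100 = no signal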
rRNA inh HTS RFP: also measured in rRNA inh HTS; calls as there; RFP signal change, %; measured here: RFP humanized mutant strains;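 first replicate; 0 = DMSO median and -100 = no signal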
* = called active by the depositor; & = joins results of further samples. Some of the compounds tested; rates above refer to the full screens.

SMILES	rRNA inh HTS	rRNA inh HTS OD600	rRNA inh HTS RFP
COc1ccc(S(=O)(=O)N(C)C[C@H]2Oc3ccc(NS(=O)(=O)c4c(C)noc4C)cc3CC(=O)N([C@@H](C)CO)C[C@H]2C)cc1	1	-13	-0.1
C[C@@H]1CN([C@H](C)CO)C(=O)c2cc(-c3cccc(C#N)c3)cnc2O[C@H]1CN(C)C(=O)C1CCOCC1	3	23	1.8
COc1ccc(NC(=O)Nc2ccc3c(c2)C(=O)N([C@@H](C)CO)C[C@@H](C)[C@H](CN(C)C(=O)Cc2ccccc2)OCCCC[C@H](C)O3)cc1	0	-4	1.5
C[C@@H]1CN([C@H](C)CO)C(=O)c2cc(C3=CCCC3)cnc2O[C@@H]1CN(C)C(=O)NC1CCCC1	1	-1	-1.6
CCCCCc1c(-c2ccc(OC)c(OC)c2)ncn1CCc1ccccc1OC	-30	-69	-9.0
CC=Cc1ccc2n(c1=O)C[C@H]1[C@H](CO)[C@@H](C(=O)NCC)N(C(=O)C3CCOCC3)[C@@H]21 (mixture of isomers)	4	14	2.4
COc1ccc(S(=O)(=O)N2C[C@H](O)COC[C@H]3O[C@@H](CC(=O)NCCCN4CCOCC4)CC[C@@H]32)cc1	6	28	-4.4
CCC(=O)N1C[C@@H](O)COC[C@@H]2O[C@H](CC(=O)NCc3ccccc3Cl)CC[C@H]21	0	-4	-2.8
CNC[C@@H]1Oc2ccc(NC(=O)CCC(F)(F)F)cc2CC(=O)N([C@@H](C)CO)C[C@@H]1C	0	3	-1.2
CN(C)CC(=O)N1[C@H](C#N)[C@@H](c2ccc(C#Cc3cccnc3)cc2)[C@H]1CO	11	11	-2.4
COc1ccc2c3c(n(C)c2c1)[C@@H](CO)N(Cc1ccccc1)CC31CCN(S(C)(=O)=O)CC1	-3	-10	-0.7
C/C=C/c1ccc([C@@H]2[C@@H](CO)N(C(C)=O)[C@H]2CNC(=O)c2ccncc2)cc1	-1	4	-1.8
COc1ccc(S(=O)(=O)N2CC[C@@H]3[C@H]2c2cc(Br)ccc2N[C@@H]3CO)cc1	-11	-10	6.3
COCc1[nH]nc2c1C(c1cccc(C(F)(F)F)c1)NC2=O (stereo unspecified)	11	-1	3.4
CCOC(=O)[C@]12CCC=C1N(Cc1ccccc1)C(=O)[C@H](CC(=O)NCc1ccccc1)C2	-22	-23	-3.6
CCS(=O)(=O)N1CCCCN2[C@@H](CO)[C@@H](c3ccc(-c4ccccc4C)cc3)[C@@H]2C1	6	-4	2.7
C[C@H](CO)N1C[C@H](C)[C@@H](CN(C)Cc2ccccc2)Oc2c(cccc2N(C)C)C1=O	-4	-23	0.1
CC(=O)N1[C@@H]2CN(S(C)(=O)=O)C[C@H]1C2c1ccccc1 (stereo partly specified)	1	-3	0.6
Cc1noc(C)c1NC(=O)Nc1ccc2c(c1)C(=O)N([C@H](C)CO)C[C@@H](C)[C@@H](CN(C)Cc1ccc(Oc3ccccc3)cc1)O2	-1	-6	4.5
Cc1ccccc1-c1ccc([C@@H]2[C@H](CO)N3CCCCN(C(=O)c4cccnc4)C[C@@H]23)cc1	-1	-6	-1.4
O=C(Nc1ccc(F)cc1)C(c1cccc(F)c1)N1CCN(Cc2c(F)cccc2Cl)CC1 (stereo unspecified)	-6	-32	11
CC1(C)CN(Cc2ccccc2)C(=O)[C@H]1CC(=O)Nc1ccc(Br)cc1	-32	-66	3.5
C[C@@H]1CN([C@@H](C)CO)C(=O)c2cccc(NS(C)(=O)=O)c2O[C@@H]1CN(C)S(=O)(=O)c1ccc(Cl)cc1	-10	-6	-3.8
C[C@@H]1CN([C@H](C)CO)C(=O)c2cc(NC(=O)CCC(F)(F)F)ccc2O[C@@H](C)CCCCO[C@@H]1CN(C)C(=O)C1CCCCC1	-1	7	-0.1
O=C(C1CC1)N1C[C@@H]2[C@H](c3ccccc31)[C@H](CO)N2C(=O)Nc1cccc(F)c1	-1	-13	-2.2
Later entries.
SMILES	rRNA inh HTS	rRNA inh HTS OD600	rRNA inh HTS RFP
CC(=O)NC[C@H]1[C@H](c2ccccc2)[C@H](CO)N1C(=O)Cc1ccncc1	1	9	-1.8
N#C[C@H]1[C@@H](c2ccc(-c3ccccc3F)cc2)[C@H](CO)N1C(=O)C1CCC1	-7	-43	-4.2
CC(=O)C1=CCC(c2ccc(C(C)C)cc2)N(S(=O)(=O)c2ccc(C)cc2)C1 (stereo unspecified)	7	-5	0.4
COc1ccc(NC(=O)N(C)C[C@H]2Oc3ccc(NC(=O)Nc4ccc(F)cc4)cc3CC(=O)N([C@@H](C)CO)C[C@H]2C)cc1	-3	-8	-2.1
COCC(=O)Nc1ccc2c(c1)OC[C@@H](C)N(C(=O)Cc1cccnc1)C[C@H](C)[C@@H](OC)CN(C)C2=O	2	1	-1.1
C[C@@H]1CN([C@@H](C)CO)C(=O)c2cc(NC(=O)CCCN(C)C)ccc2O[C@@H]1CN(C)Cc1ccc(Cl)c(Cl)c1	1	-4	3.9
CC(C)CC#Cc1ccc2c(c1)O[C@@H](CN(C)C(=O)NC(C)C)[C@@H](C)CN([C@@H](C)CO)S2(=O)=O	-2	-38	11
C[C@@H]1CN([C@@H](C)CO)C(=O)c2c(c3ccccc3n2C)-c2ccccc2CO[C@@H]1CN(C)C(=O)Nc1ccc(F)cc1	-3	-8	3.5
CCN1[C@H](C(=O)NCc2ccccn2)[C@@H](CO)[C@@H]2Cn3c(ccc(C4=CCCCC4)c3=O)[C@@H]21	2	0	2.9
C[C@@H]1CN([C@@H](C)CO)C(=O)c2cc(NS(=O)(=O)c3ccc(Cl)cc3)ccc2O[C@@H]1CN(C)Cc1ccc(C(=O)Nc2ccccc2N)cc1	-8	-15	5.7
COc1cccc(NC(=O)N(C)C[C@@H]2Oc3cc(C#Cc4ccccc4)ccc3S(=O)(=O)N([C@@H](C)CO)C[C@@H]2C)c1	2	5	-2.6
COc1ccc(-c2ccc3c(c2)O[C@@H](CN(C)C(C)=O)[C@H](C)CN([C@@H](C)CO)S3(=O)=O)cc1	-1	-6	-5.8
C[C@@H]1CN([C@@H](C)CO)C(=O)c2cc(NS(=O)(=O)c3ccc(F)cc3)ccc2O[C@H]1CN(C)Cc1ccc(Oc2ccccc2)cc1	-7	-25	3.6
COc1ccc(S(=O)(=O)N2CCCCN3[C@@H](CO)[C@H](c4ccc(C#CC5CC5)cc4)[C@@H]3C2)cc1	-47	-60	-1.9
COc1ccc(S(=O)(=O)Nc2ccc3c(c2)C(=O)N([C@@H](C)CO)C[C@@H](C)[C@@H](CN(C)C(=O)NC2CCCCC2)OCCCC[C@@H](C)O3)cc1	-2	-5	2.7
C[C@@H]1CN([C@H](C)CO)C(=O)c2cc(NS(=O)(=O)c3ccc(F)cc3)ccc2O[C@@H]1CN(C)Cc1ccccc1	-1	-3	-3.1
Cc1ccc(S(=O)(=O)N[C@H]2CC[C@H](CCNC(=O)c3ccc4c(c3)OCO4)O[C@@H]2CO)cc1	-3	-9	-4.2
C[C@H](CO)N1C[C@H](C)[C@@H](CN(C)CC2CCCCC2)Oc2c(NC(=O)C3CCOCC3)cccc2C1=O	-5	-2	1.6
C[C@@H]1CN([C@@H](C)CO)C(=O)CCCn2nncc2CO[C@H]1CN(C)C(=O)Nc1ccccc1F	23&-5	10&-13	2.0&0.7
O=C(NCC[C@@H]1CC[C@H](NS(=O)(=O)c2ccccc2)[C@H](CO)O1)c1ccccc1F	-2	1	0.4
CC(C)C#Cc1cnc2c(c1)C(=O)N([C@H](C)CO)C[C@@H](C)[C@@H](CN(C)Cc1cncnc1)O2	4	12	-4.0
O=C([C@H]1[C@H](CO)[C@H]2Cn3c(ccc(C4=CCCC4)c3=O)[C@H]2N1CC1CC1)N1CCCCC1	0	-8	2.9
CCc1nc2ccc(C(=O)N(C)CCCN(C)C)cn2c1N(C=O)CCC(C)C	-1	5	-1.3
O=C(C[C@@H]1C=C[C@@H](NC(=O)C2CCC2)[C@H](CO)O1)NCc1ccccc1Cl	4	5	0.4
CO[C@@H]1CN(C)C(=O)c2cc(NC(=O)c3nc4ccccc4s3)ccc2OC[C@H](C)N(Cc2cccnc2)C[C@H]1C	-6	-10	24

Of the compounds above, these have bromine:
SMILES	rRNA inh HTS	rRNA inh HTS OD600	rRNA inh HTS RFP
COc1ccc(S(=O)(=O)N2CC[C@@H]3[C@H]2c2cc(Br)ccc2N[C@@H]3CO)cc1	-11	-10	6.3
CC1(C)CN(Cc2ccccc2)C(=O)[C@H]1CC(=O)Nc1ccc(Br)cc1	-32	-66	3.5

More results follow.
SMILES	rRNA inh HTS	rRNA inh HTS OD600	rRNA inh HTS RFP
CCN(CC1CCCO1)C(=O)CCc1nnc(CCc2ccccc2)o1 (stereo unspecified)	1	4	-0.6
C[C@@H]1CN([C@@H](C)CO)C(=O)CCCn2nncc2CO[C@H]1CN(C)S(=O)(=O)c1ccc(C#N)cc1	-4&-2	6&-2	1.0&-2.2
C[C@@H]1CN([C@H](C)CO)C(=O)c2cc(-c3cccnc3)cnc2O[C@H]1CN(C)C(=O)C1CC1	9	9	-3.4
CCC(=O)N(C)C[C@H]1Oc2ncc(-c3ccccc3C)cc2C(=O)N([C@H](C)CO)C[C@@H]1C	-2	3	-1.2
O=C(C[C@H]1CC[C@H](NC(=O)CN2CCOCC2)[C@@H](CO)O1)NCc1cccc(F)c1	-1	0	-1.4
COc1cccc(-c2cn(CC[C@H]3CC[C@@H](NS(=O)(=O)Cc4ccccc4)[C@@H](CO)O3)nn2)c1	-4	6	2.3
O=C(O)[C@H]1[C@H](CO)[C@H]2Cn3c(ccc(C4=CCCCC4)c3=O)[C@H]2N1C(=O)Cc1cccnc1	1	6	-1.3
Cn1c(NCc2cccnc2)nc2cc(-c3cccc(C(=O)NCCO)c3)sc2c1=O	5	7	0.3
COc1ccc2c3c(n(C)c2c1)[C@H](CO)N(C(=O)Cc1ccccc1)CC31CCN(C(=O)Cc2ccccc2)CC1	-3	-12	7.6
COc1ccc2c3c(n(C)c2c1)[C@H](CO)N(C(=O)CN(C)C)CC31CN(C(=O)CN(C)C)C1	0	2	-2.1
COc1ccccc1CN1C(=O)C(Cc2ccccc2)ON=C1c1ncccc1C (stereo unspecified)	-19	-33	-19
COC(=O)Cc1nnn2c1[C@H](C)[C@H](c1ccccc1[N+](=O)[O-])OCC2	15	9	4.5
C[C@H]1CCCCO[C@@H](CN(C)C(=O)NC2CCCCC2)[C@@H](C)CN([C@@H](C)CO)C(=O)c2cc(NC(=O)C3CCCCC3)ccc2O1	2	3	2.7
C[C@@H]1CCCCO[C@H](CN(C)C(=O)NC2CCCCC2)[C@@H](C)CN([C@@H](C)CO)C(=O)c2cc(NC(=O)c3ccncc3)ccc2O1	1	-4	0.4
CCC(=O)N1C[C@@H](C)[C@H](OC)CN(C)C(=O)c2cc(NC(=O)c3ccccc3)ccc2OC[C@H]1C	1	2	-0.5
S=C1NC[C@H](Cc2ccccc2)N1CC1CCN(CCCC2CCCCC2)CC1	-1	-8	-2.2
COc1ccc2c3c([nH]c2c1)[C@H](CO)N(C(=O)C1CCOCC1)CC31CN(Cc2cccc(F)c2)C1	-2	-7	6.9
COC(=O)[C@]12CCCCC=C1N(Cc1cccc3ccccc13)C(=O)[C@H](CC(=O)NCCc1ccccc1OC)C2	4	12	1.8
COc1ccccc1-c1ccc2c(c1)[C@H]1[C@H](CCN1S(=O)(=O)c1ccccc1F)[C@H](CO)N2	-5	-9	4.7
C[C@H](O)C#Cc1ccc([C@@H]2[C@@H](CO)N3CCCCN(S(=O)(=O)Cc4ccccc4)C[C@H]23)cc1	4	2	1.9
CC1(C(=O)NS(=O)(=O)C2CC2)CCCN(C(=O)c2ccc(C(F)(F)F)cc2)C1 (stereo unspecified)	18	16	14
C[C@H]1CN([C@@H](C)CO)C(=O)CCCn2nncc2CO[C@@H]1CN(C)Cc1ccc2c(c1)OCCO2	-9&2	2&13	-3.5&-1.8
COc1c(C)cc(C(O)c2ncc(-c3ccc(Cl)cc3)[nH]2)cc1C (stereo unspecified)	-18	-45	11
C[C@@H]1CN([C@@H](C)CO)C(=O)c2cc(NS(=O)(=O)c3cn(C)cn3)ccc2O[C@@H]1CN(C)S(=O)(=O)c1ccc(F)cc1	3	1	-0.3
CC(C)NC(=O)NCC[C@@H]1CC[C@H](NS(=O)(=O)c2ccc(Oc3ccccc3)cc2)[C@H](CO)O1	3	6	5.3
CNC[C@H]1Oc2cc(-c3ccc(C#N)cc3)ccc2S(=O)(=O)N([C@H](C)CO)C[C@@H]1C	6	10	1.3
CC(C)NC(=O)N(C)C[C@H]1Oc2cc(-c3cccnc3)ccc2S(=O)(=O)N([C@H](C)CO)C[C@@H]1C	-2	1	-4.1

Copied from the list.
`Cn1c(NCc2cccnc2)nc2cc(-c3cccc(C(=O)NCCO)c3)sc2c1=O` | rRNA inh HTS OD600: 7
`C[C@H](O)C#Cc1ccc([C@@H]2[C@@H](CO)N3CCCCN(S(=O)(=O)Cc4ccccc4)C[C@H]23)cc1` | rRNA inh HTS OD600: 2
`S=C1NC[C@H](Cc2ccccc2)N1CC1CCN(CCCC2CCCCC2)CC1` | rRNA inh HTS RFP: -2.2
`C[C@@H]1CN([C@@H](C)CO)C(=O)c2cc(NS(=O)(=O)c3cn(C)cn3)ccc2O[C@@H]1CN(C)S(=O)(=O)c1ccc(F)cc1` | rRNA inh HTS OD600: 1
`O=C(C[C@H]1CC[C@H](NC(=O)CN2CCOCC2)[C@@H](CO)O1)NCc1cccc(F)c1` | rRNA inh HTS OD600: 0

Assay outcomes from PubChem BioAssay.
